Source: PubChem BioAssay (National Center for Advancing Translational Sciences (NCATS))
LASV entry inh: qHTS for Inhibitors of binding or entry into cells for Lassa Virus; Lassa virus pseudotyped entry inhibition, cell-based qHTS; control for the full effect not named in the record; many of its hits are not listed in these tables; Potency, µM (highest dose often 49.2 µM), for inactives: at the highest dose activity change, negative = inhibition, actives largely listed as inhibitors; hit rate 4.1% among 18,000; AID 720533, 2013; active = well fitted inhibition curve with a large enough effect; inconclusive = small, poorly fitted or top-dose-only effect; inactive = no such curve, though single readings can be large or run the other way; tested in HEK293 cells; note: luciferase read-out
Marburg entry: qHTS for Inhibitors of binding or entry into cells for Marburg Virus; hit rate 6.5% among 18,000; AID 720532, 2013; Potency, µM (top dose mostly 49.2 µM), for inactives: at the top dose activity change, negative = inhibition, hits mostly inhibitors; Marburg virus pseudotype entry/binding inhibition, cell-based; control for the full effect not named in the record; many of its hits are not listed in these tables; active means well fitted inhibition curve with a large enough effect; inconclusive means small, poorly fitted or top-dose-only effect; inactive means no such curve, though single readings can be large or run the other way; tested in HEK293 cells; note: luciferase read-out
* marks the source's active call; other numbers are inactive results; ? = inconclusive; / = not tested or not shown; & = joins results of further samples; [ ] = dose if it differs, or a comment. % is set by controls: 0 for no effect and ±100 for the full control effect; potency is the fitted concentration of half-maximal effect.

SMILES	LASV entry inh	Marburg entry
COCOCCn1cc(CN2CCS(=O)(=O)N(Cc3ccc(-c4ccc(Cl)cc4)cc3)C(CC(C)C)C2=O)nn1 (stereo unspecified)	/	?
CC(C)C[C@@H](C(=O)N[C@@H](Cc1c[nH]c2ccccc12)C(N)=O)N1C[C@]2(CCCN2C(=O)[C@H](Cc2ccccc2)NC(=O)[C@H](Cc2ccccc2)NC(=O)[C@H](CCC(N)=O)NC(=O)[C@H](CCC(N)=O)NC(=O)[C@@H]2CCCN2C(=O)[C@H](CCCCN)NC(=O)[C@@H]2CCCN2C(=O)[C@@H](N)CCCNC(=N)N)CC1=O	2%	0%
CCOC(OCC)P(=O)(O)CCCN	-7%&-5%	0%&10%
O=C(O)[C@H]1/C(=C/CO)O[C@@H]2CC(=O)N21	-2%	2%
COCCN1C(=O)C2=C(C1=O)C1N(C)c3ccccc3[C@@]13C[C@@H](CO)N(C(=O)c1ccc(Br)cc1)C3=N2 (stereo partly specified)	-5%[8.59 µM]	-7%[8.59 µM]
Cc1ccc(-c2ccc(CN3C(C(C)C)C(=O)N(Cc4cn(Cc5ccco5)nn4)CCS3(=O)=O)cc2)cc1 (stereo unspecified)	?	?
COC(=O)[C@H]1O[C@@H](c2cc(OC)c(C)c(OC)c2O)[C@H](C)[C@@H](O)[C@@H]1C	/	32%[activator][8.59 µM]
c1cncc(OC2CCN(Cc3ccc4c(c3)CN(Cc3nc5ccccc5s3)CCO4)CC2)c1	4%	-2%
Cc1cc(=O)c2c(O)cc(O)c(C)c2o1	8%	9%
[N-]=[N+]=Nc1nc2c(N)ncnc2n1C1OC(CO)C(O)C1O (stereo unspecified)	?	?
COc1ccccc1C1CC(=O)Oc2cc(O)ccc21 (stereo unspecified)	-6%	14%
CCC1(C2CCN(Cc3cccc4ccccc34)CC2)NC(=O)N(Cc2ccc3c(c2)OCO3)C1=O (stereo unspecified)	-30%	?
O=P1(O)Oc2c(c(-c3ccccc3)cc3ccc4ccccc4c23)-c2c(-c3ccccc3)cc3ccc4ccccc4c3c2O1	-3%	-8%
Cc1ccc(/C=C/C2=C[C@]3(C)C[C@]2(C)[C@H](c2ccc(C)cc2)CC3=O)cc1	5%	-29%
CCCCC(=O)O[C@H]1CC[C@H]2[C@@H]3CCc4cc(O)ccc4[C@H]3CC[C@]12C	?	-15%
O=Cc1ccc(OCc2cn(CC(=O)c3ccc(O)cc3)nn2)cc1	11%	13%
CC(C)c1cccc(O)c(=O)c1	?	?
OC[C@H]1OC(O)(CN2CCOCC2)[C@H](O)[C@@H]1O (stereo partly specified)	-19%	5%
CC(=O)N[C@H](Cc1c[nH]c2ccccc12)C(N)=O	8%	19%
NC(N)=NCCC[C@H](NC(=O)[C@H](Cc1ccccc1)NC(=O)[C@@H]1CCCN1C(=O)[C@H](CO)NC(=O)[C@H](Cc1ccccc1)NC(=O)CNC(=O)[C@@H]1CCCN1C(=O)[C@@H]1CCCN1C(=O)[C@@H](N)CCCN=C(N)N)C(=O)O	4%	1%
COc1ccc(-c2ccc(CN3C(CC(C)C)C(=O)N(Cc4cn(CC5CCCCC5)nn4)CCS3(=O)=O)cc2)cc1OC (stereo unspecified)	-34%	?
COC(=O)[C@@H]1C[C@H](OC(C)=O)C(=O)[C@H]2[C@@]1(C)CC[C@H]1C(=O)O[C@H](c3ccoc3)C[C@]21C	-4%&2%	12%&2%
CCCCC/C=C\C/C=C\C/C=C\CCCCC(=O)NC(C)C(=O)O (stereo unspecified)	0%	-13%
COc1cc2c(cc1OC)C(c1ccccc1)=NCC2	5%	2%
CC1(C)C(=O)C=C[C@@]2(C)C1=C(O)C(=O)[C@@]1(C)C2CC[C@@]2(C)C(c3ccoc3)C[C@H]3O[C@@]321 (stereo partly specified)	11µM*	5µM*
COc1cccc(-c2nc(N3CCNCC3)c3ccccc3n2)c1	4%	?
COC(=O)C(C(C)=O)[C@@H](NC(=O)OC(C)(C)C)c1ccccc1 (stereo partly specified)	-20%[8.59 µM]	-7%[8.59 µM]
COc1ccc(-c2nc(-c3ccccc3)c(NC(C)C)o2)cc1	-12%	15%
Cc1cc(C)nc(-c2cccc3c2OC(CNC(=O)c2ccc(Cn4nc(C)cc4C)cc2)C3)n1 (stereo unspecified)	-6%	?
COc1cc2oc(=O)cc(-c3ccc(-c4cccc(N)c4)cc3)c2c(OC)c1OC	-21%	?
CC(C)(C)c1ccc(C(=O)N2CCC(=O)N([C@H](COCc3ccc(Cl)cc3)Cc3ccccc3)CC2)cc1	?	?
O=c1n(-c2ccccc2)c(=O)n2n1CC[C@@H]1C(=NOC[C@@H](O)COCc3ccco3)[C@H]3O[C@H]3[C@@H](O)[C@H]12	-5%[8.59 µM]	-23%[8.59 µM]
Cc1cc(C)cc([C@H]2C[C@]34CN(Cc5ccccc5)[S+](=O)([O-])[C@@H]3C[C@@H]2O4)c1	-20%	-15%
COCC(=O)Nc1cc(C(=O)N2CCSCC2)cc2nc(-c3ccccc3)n(C)c12	-10%	-2%
C[C@@H]1OC(O[C@H]2[C@H](Oc3cc(O)c4c(=O)c(O)c(-c5ccc(O)cc5)oc4c3)O[C@H](CO)[C@@H](O)[C@@H]2O)[C@H](O)[C@H](O)[C@H]1O (stereo partly specified)	2%	8%
COc1ccc(C2Oc3c(I)c(OC)cc(OC)c3CC2O)cc1OC (stereo unspecified)	?	9%
COC(=O)CCC(=O)OC1(C)C(=O)C=C2C=C(C3CC3)N(Cc3ccc4c(c3)OCO4)C=C2C1=O (stereo unspecified)	-10%[8.59 µM]	19%[8.59 µM]
CC(=O)c1c(O)c(C)c(O)c2c1OC1=CC(=O)C(C(C)=O)C(=O)[C@@]12C (stereo partly specified)	0%	0%
O=C(C1CCCCC1)N1C[C@H](O)[C@H](n2cc(-c3ccc(F)cc3)nn2)C[C@@H]1c1ccc(Cl)cc1	?	?
OC[C@H]1O[C@@H](OC[C@H]2O[C@@H](O)[C@H](O)[C@@H](O)[C@@H]2O)[C@H](O)[C@@H](O)[C@@H]1O	-2%	2%
CCCCC/C=C\C/C=C\C/C=C\C=C\[C@H](CCCC(=O)O)OO	4%&-11%	20%&3%
Cc1ccc2c(C)nc(N3CCCC(C(=O)NC(C)(C)CO)C3)nc2c1 (stereo unspecified)	-19%	-15%
O[C@H]1CN(CC2CCCCC2)[C@@H](c2ccc(Cl)cc2)C[C@H]1n1cc(C2CC2)nn1	/	?
COc1cccc(CN2CCc3nnc(CCc4ccccc4)n3CC2)c1OC	-12%	-19%
O=S1(=O)c2c(F)cccc2O[C@@H](COCc2ccccc2)CN1CCc1ccc(F)cc1	/	-44%
CCN1C(=NCc2ccc(OC)cc2)NC(c2ccccc2)C(C(=O)OC)=C1C (stereo unspecified)	10%[8.59 µM]	-22%[8.59 µM]
O=C(NCC1Cc2cc(F)cc(-c3cnccn3)c2O1)c1cccc(-c2ccccc2F)c1 (stereo unspecified)	?	-11%
C#CCCCON=C1C[C@@H](O)[C@H](O)[C@H]2[C@@H]3C(=O)N(c4cccc(Oc5ccccc5)c4)C(=O)[C@@H]3CC[C@@H]12	8%[8.59 µM]	31%[8.59 µM]
CCCCC/C=C\C/C=C\C/C=C\C=C\C1CCCC(=O)O1 (stereo unspecified)	-12%	-12%
O=C(O)COc1ccccc1/C=N/NC(=O)c1ccncc1	-3%	15%
CCS(=O)(=O)N(C)[C@@H]1c2cc(C#N)ccc2OC(C)(C)[C@H]1O	-6%&-12%	4%&-14%
O=S1(=O)N[C@H](Cc2ccccc2)COc2cccc(F)c21	-11%	27%
CC(C)(Oc1ccc([C@@H]2CC2(Cl)Cl)cc1)C(=O)O	-5%[17.8 µM]	2%[17.8 µM]
CC(=O)O[C@@H]1C(=O)[C@@]2(C)[C@H](O)C[C@H]3OC[C@]3(OC(C)=O)[C@@H]2[C@H](OC(=O)c2ccccc2)[C@@]2(O)C[C@H](OC(=O)[C@@H](O)[C@@H](NC(=O)c3ccccc3)c3ccccc3)C(C)=C1C2(C)C (stereo in doubt)	-26%[17.8 µM]	?
CCCCN1CC(N2CCN(Cc3ccccc3)CC2)CS1(=O)=O (stereo unspecified)	15%	3%
NC(N)=NOCC[C@H](N)C(=O)O	1%	-1%
COC(=O)C1=C(C)N(CC2CC2)C(=O)NC1c1ccc(Br)cc1 (stereo unspecified)	-8%[8.59 µM]	77%[activator][8.59 µM]
NC(Cc1ccccc1)C(=O)O (stereo unspecified)	5%	-6%
CNC(CC(=O)O)C(=O)O (stereo unspecified)	-1%	-2%
COCCNc1ccnc(-c2ccccc2CN(C)C)n1	-2%	-6%

Single records, from the list above.
CCCCC/C=C\C/C=C\C/C=C\C=C\C1CCCC(=O)O1 (stereo unspecified) in the list: LASV entry inh = -12%; Marburg entry = -12%
CC(C)(Oc1ccc([C@@H]2CC2(Cl)Cl)cc1)C(=O)O in the list: LASV entry inh = -5%[17.8 µM]; Marburg entry = 2%[17.8 µM]

Later entries
SMILES	LASV entry inh	Marburg entry
O=C(c1cccc(Cl)c1)N1CCC(=O)N([C@H](COCc2cccc(Cl)c2)Cc2ccccc2)CC1	?	?
CC[C@H]1OC(=O)[C@H](C)C(=O)[C@H](C)[C@@H](O[C@@H]2O[C@H](C)C[C@H](N(C)C)[C@H]2O)[C@](C)(OC)C[C@@H](C)C(=O)[C@H](C)[C@H]2N(CCCCn3cnc(-c4cccnc4)c3)C(=O)O[C@]12C	-26%&5%	-20%&19%
CC(C)Cc1nc2cc(NS(=O)(=O)N(C)C)cc(C(=O)N3CCN(c4ccccc4)CC3)c2n1C	-6%	-7%
Nc1ccn([C@@H]2O[C@H](CO)[C@@H](OP(=O)(O)O)[C@H]2O)c(=O)n1	6%	3%
COCC(=O)Nc1cc(C(=O)N2CCCC(C(C)=O)C2)cc2nc(-c3ccccc3)n(C)c12 (stereo unspecified)	-4%	13%
O=C(/C=C/c1ccccn1)NCC1Cc2cccc(-c3ncccn3)c2O1 (stereo unspecified)	3%	-8%
Cn1ccc(O)c(C#N)c1=O	-6%	9%
c1ccc(CNc2ccnc(-c3ccc4c(c3)OCO4)n2)cc1	9%	34%[activator]
CC(C)C[C@H]1COc2cccc(F)c2S(=O)(=O)N1	18%&8%	11%&-15%
COC(=O)c1ccc(-c2cccc3c2OC(CNC(=O)c2ccc4c(c2)OCCO4)C3)nc1 (stereo unspecified)	-2%	2%
CC(C)C(NC(=O)c1ccoc1)c1nnc2n1CCN(C(=O)/C=C/c1ccc(F)cc1)CC2 (stereo unspecified)	-8%	0%
NC(=S)N=Nc1ccc(NN=C(N)N)cc1	-11%	-9%
COc1ccccc1-c1cc(=O)c2cccc(OC)c2o1	46%[activator]	22%
COc1cccc(-c2nc3cc(SC)ccc3cc2CN(C(=O)c2csc(C)n2)C2CC2)c1	?	?
Fc1ccc(-c2ncn(C3CCNCC3)c2-c2ccnc(Oc3ccccc3)n2)cc1	?	?

Look-ups from above:
Nc1ccn([C@@H]2O[C@H](CO)[C@@H](OP(=O)(O)O)[C@H]2O)c(=O)n1 in LASV entry inh → 6%
COCC(=O)Nc1cc(C(=O)N2CCCC(C(C)=O)C2)cc2nc(-c3ccccc3)n(C)c12 (stereo unspecified) in Marburg entry → 13%
NC(=S)N=Nc1ccc(NN=C(N)N)cc1 in LASV entry inh → -11%

The results go on.
SMILES	LASV entry inh	Marburg entry
O=C1C(c2[nH]c3ccc(S(=O)(=O)O)cc3c2O)=Nc2ccc(S(=O)(=O)O)cc21	-3%&16%&-1%	-6%&7%&-4%
O=C(Nc1cccc(C(=O)N2CCOCC2)c1)C1CC1	-8%	10%
C=C(C)C(=O)c1ccc(OC)cc1	-17%	-14%
CCCCN1CC(CO)Oc2cccc(F)c2S1(=O)=O (stereo unspecified)	?	23%
C=C[C@]12CN(C)[C@H]3C1[C@@]1(C(=O)Nc4ccccc41)[C@H]1C[C@H]2[C@H]3CO1	-15%[17.8 µM]	-10%[17.8 µM]
CN1CCC(N(Cc2cccs2)c2ccccc2)CC1	?	?
CCCCCCCCCCCCCC[C@@H](O)[C@@H](O)[C@H](CO)NC(C)=O	?	-19%
COc1ccc(-c2noc(CC(=O)O)c2-c2ccc(OC)cc2)cc1	?	16%
COC(=O)C/C=C/[C@@H](C)[C@H](OC)c1c(Br)ccc2c1OCO2	2%	-6%
CCC(=O)C(C(=O)OC)[C@H](CCc1ccccc1)NC(=O)OC (stereo partly specified)	0%	-19%
O=c1[nH]cnc2[nH]cc(CN3CCCCC3)c12	-14%	5%
COCC(=O)Nc1cc(C(=O)N2CC3CC4CC(C3)CC2C4)c2c(c1)nc(-c1ccncc1)n2C	-8%	-37%

Structural class, the compounds so far containing a COOH group.
SMILES	LASV entry inh	Marburg entry
O=C(O)[C@H]1/C(=C/CO)O[C@@H]2CC(=O)N21	-2%	2%
NC(N)=NCCC[C@H](NC(=O)[C@H](Cc1ccccc1)NC(=O)[C@@H]1CCCN1C(=O)[C@H](CO)NC(=O)[C@H](Cc1ccccc1)NC(=O)CNC(=O)[C@@H]1CCCN1C(=O)[C@@H]1CCCN1C(=O)[C@@H](N)CCCN=C(N)N)C(=O)O	4%	1%
CCCCC/C=C\C/C=C\C/C=C\CCCCC(=O)NC(C)C(=O)O (stereo unspecified)	0%	-13%
CCCCC/C=C\C/C=C\C/C=C\C=C\[C@H](CCCC(=O)O)OO	4%&-11%	20%&3%
O=C(O)COc1ccccc1/C=N/NC(=O)c1ccncc1	-3%	15%
CC(C)(Oc1ccc([C@@H]2CC2(Cl)Cl)cc1)C(=O)O	-5%[17.8 µM]	2%[17.8 µM]
NC(N)=NOCC[C@H](N)C(=O)O	1%	-1%
NC(Cc1ccccc1)C(=O)O (stereo unspecified)	5%	-6%
CNC(CC(=O)O)C(=O)O (stereo unspecified)	-1%	-2%
COc1ccc(-c2noc(CC(=O)O)c2-c2ccc(OC)cc2)cc1	?	16%
